eIF4H FP inh = inhibitors of RNA binding by human eIF4H. Q15056. eIF4H fluorescence polarization binding assay. inhibition, % at 35 µM. 290,000 compounds, 0.94% hits. AID 2012;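 active = 50% or more with normal probe brightness, or confirmed in later tests; about a fifth of its hits are not listed in these tables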;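 also: calls also rest on retests at 20 µM and on dose response follow-up; 0% = protein and probe with vehicle and 100% = probe without protein; strong numbers were not always called active; many hits fall short of the cut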
HIV Env fusion = blocks HIV Env-driven cell-cell fusion | inhibition, % at 12.3 µM | HeLa-JRFL Env/CEM21 cell fusion, luciferase | 360,000 compounds, 1.1% hits | AID 651610;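 active = mean replicate inhibition score of at least 50 and every replicate individually at or above 50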;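 also: 0% = plate neutral controls and 100% = maraviroc near 300 nM; one replicate is shown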
MT1-MMP act inh = blocks activation of human MT1-MMP | 360,000 compounds, 0.061% hits | P50281 | HT1080 RFP-PRO-GFP cells, GFP/RFP ratio fluorescence, overnight; percent of plate control window, DMSO zero | GFP/RFP ratio change, % at 20 µM;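 active = GFP/RFP ratio change of at least 30% with cell ATP level not reduced by more than half and red fluorescence within 50% of control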; also: strong numbers were not always called active
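Material – HT1080 RFP-PRO-GFP cells · Control set – DMSO wells and RFP-L50D-GFP cells · Incubation – overnight cell settling, then overnight compound exposure, 37 °C, 5% CO2 · Compound dosing – single-point 20 µM compound, 1% DMSO · Read-out – GFP/RFP fluorescence ratio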
Rce1 inh = inhibitors of yeast Ras-converting enzyme; Q03530; yeast membranes, quenched prenylated peptide cleavage fluorescence; calls only; 290,000 compounds, 0.27% hits; AID 2563;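 active = fall in fluorescence gain of 50% or more versus controls, with final raw signal at or below 3038400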;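 also: plate controls were neutral control wells for no effect and wells lacking membranes for full effect; tested at 10 µM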
Target sequence (Q03530 whole entry, looked up): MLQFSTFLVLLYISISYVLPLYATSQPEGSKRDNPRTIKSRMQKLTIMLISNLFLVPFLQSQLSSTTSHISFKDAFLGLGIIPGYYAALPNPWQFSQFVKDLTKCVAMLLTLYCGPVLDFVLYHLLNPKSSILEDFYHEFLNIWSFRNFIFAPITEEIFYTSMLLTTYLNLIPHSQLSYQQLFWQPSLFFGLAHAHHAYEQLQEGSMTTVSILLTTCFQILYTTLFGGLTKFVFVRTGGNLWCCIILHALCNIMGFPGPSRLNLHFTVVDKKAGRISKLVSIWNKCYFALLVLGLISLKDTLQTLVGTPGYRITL
Yeast UUG start = modulators of start codon recognition fidelity in yeast; S. cerevisiae UUG-firefly luciferase reporter, luminescence/redox ratio; activity score, % at 18.7 µM; 350,000 compounds, 0.13% hits;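 active = replicate mean at a twofold rise or more, about +100% in these data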;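 also: firefly luciferase made from a UUG start codon reports start codon fidelity; reporter light over untreated wells divided by growth signal over untreated wells; some hits fall short of that in this replicate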
CSC inhib = cancer stem cell inhibition | cancer stem cell-like cells viability, luminescence | inhibition, % at 7.5 µM | 300,000 compounds, 1.1% hits | AID 2717;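 active = mean at 75% or more and at least half the replicates too; tested in HMLE shEcad cells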;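 also: 0% = median of negative and 100% = median of positive control wells; the first replicate is given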
PABP FP inh = blocks human PABP binding to poly(A) RNA. P11940. fluorescence polarization. inhibition, % at 35 µM. 290,000 compounds, 1% hits;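 active = 50% or more with normal probe brightness, or confirmed in later tests; about a fifth of its hits are not listed in these tables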;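 also: calls also rest on retests at 20 µM and on dose response follow-up; controls were probe without protein and protein plus probe with vehicle; some compounds called inactive have numbers as strong as hits; many hits fall short of the cut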
eIF4H FP inh retest = also measured in eIF4H FP inh; calls as there; inhibition, %; compound at 20 µM; confirmation average;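 mean of two retest wells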
PABP FP inh retest = second read-out of PABP FP inh, no call of its own (marks repeat the call); inhibition, %; compound at 20 µM; confirmation repeats;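 mean of two retest wells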
MT1-MMP act inh RFP = recorded beside MT1-MMP act inh, whose call it bears; RFP signal change, %; measured here: RFP expression control read;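 0 = vehicle wells; hits needed this value within 50% of zero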
Numbers without * were called inactive; i = inactive; / = no result given.

SMILES | eIF4H FP inh | HIV Env fusion | MT1-MMP act inh | MT1-MMP act inh RFP | Rce1 inh | Yeast UUG start | CSC inhib | PABP FP inh | others
CN(Cc1ccccc1)C(=O)c1ccc(NC(=O)Cc2cccc(NC(=O)C3CCCN(C(=O)C4CCC4)C3)c2)cc1 (stereo unspecified) | / | 3 | 6 | -10 | / | -8 | -9 | /
Cc1cc(C)cc(NC(=S)N2CCCC2)c1 | -12 | -104 | 0 | 3 | i | -3 | -9 | 2
CN(CC1CCOCC1)C(=O)CC1C(=O)NCCN1Cc1ccc(-c2ccccc2)cc1 (stereo unspecified) | 10 | 14 | 2 | 4 | i | / | -9 | -11
Cc1ccc(S(=O)(=O)c2nc(S(C)(=O)=O)sc2N2CCC(O)CC2)cc1 | -10 | -8 | -2 | -2 | i | -15 | -22 | 7
N#C/C(=C\c1c(Cl)cccc1Cl)c1nc2ccccc2o1 | -9 | / | -1 | 0 | i | -7 | -26 | 10
COc1ccccc1N1CCN(C(=O)c2[nH]c(C(F)(F)F)nc2-c2ccccc2)CC1 | / | -99 | 13 | -2 | / | 1 | / | /
O=[N+]([O-])c1ccc(NCCNCCOc2nonc2-c2ccccc2)c([N+](=O)[O-])c1 | 1 | 5 | 12 | 10 | i | -1 | 14 | 1
Cc1ccccc1CN1CCN(Cc2cc3ccccc3o2)CC1CCO (stereo unspecified) | -2 | 17 | -4 | -4 | i | -3 | -1 | -2
COc1ccccc1NC(=S)N1CCN(Cc2ccccc2)CC1 | 6 | 1 | 2 | 3 | i | / | -12 | 7
CCCCSc1nc(C)c(CC(=O)O)c(=O)[nH]1 | -3 | / | 2 | 5 | i | -19 | -9 | -9
NC(CCc1ccccc1)c1csc(Nc2ccc(C(F)(F)F)cn2)n1 (stereo unspecified) | / | 8 | -8 | 5 | / | 36 | / | /
CCC/C(=C1/c2ccccc2C(=O)N1c1ccccc1)c1ccc(O[C@@H]2CCCCO2)cc1 | / | 29 | 1 | -9 | / | -18 | 56 | /
CC(C)C(C)NC(=O)COc1ncnc2ccccc12 (stereo unspecified) | -4 | / | -1 | 4 | i | -3 | -14 | 2
CC(NC(=O)C(=O)NN=C1CCCCCCCCCCC1)c1ccccc1 (stereo unspecified) | -8 | -19 | -2 | 4 | i | -7 | -16 | -3
O=C(Nc1ccc(-n2cccc2)cc1)C1CC1 | 0 | -20 | / | / | i | / | -1 | 9
CN(C1CCCCC1)C(CNS(=O)(=O)c1ccccc1)c1ccccc1 (stereo unspecified) | -2 | 8 | 1 | 3 | i | -14 | 5 | 2
Cc1nnc2ccc(-c3ccc(NS(=O)(=O)c4ccc(Cl)s4)cc3)nn12 | / | -4 | 4 | 11 | / | -16 | -1 | /
COc1cc(C(=O)NCc2ccc(-c3nc4ccccc4o3)cc2)cc(OC)c1OC | -13 | / | 3 | 5 | i | -10 | -5 | -9
CN(C(=O)COC(=O)CSCc1cccc(Cl)c1)c1c(N)n(Cc2ccccc2)c(=O)[nH]c1=O | / | 11 | 1 | 4 | / | -5 | 11 | /
Cc1nc(CN(C)C(=O)c2cc(COc3ccc4ncccc4c3)on2)cs1 | 11 | 9 | -9 | -32 | i | / | 7 | -2
Cc1[nH]c2ccc(Br)cc2c(=O)c1CN1CCCCC1 | 3 | -24 | 14 | 4 | i | -4 | -8 | -5
O=C(COC(=O)C(Cc1ccccc1)NC(=O)c1ccccc1)c1ccccc1 (stereo unspecified) | 3 | -2 | 2 | 7 | i | -21 | 11 | 7
O=C(CCC(=O)N/N=C/c1ccc(Br)s1)NCc1ccccc1 | 4 | -2 | -3 | -4 | i | 4 | -2 | 4
NC(=O)c1ccc(SCC(=O)OCC(=O)NC2CCCCCCC2)c([N+](=O)[O-])c1 | / | -2 | 2 | 1 | / | -10 | -5 | /
CC(C)CC(C(=O)NCC1CCCO1)N(C(=O)Cn1nnc(-c2ccc(F)cc2)n1)c1ccccc1F (stereo unspecified) | -2 | 24 | -4 | -3 | i | -1 | -7 | 0
CC(=O)CCc1oc2ccc(C)cc2c1-c1ccccc1 | -2 | 1 | -3 | 1 | i | -20 | 11 | 1
CCOCCCNC(=O)c1ccc(Br)cc1 | 8 | -46 | 5 | -4 | i | -12 | -9 | 3
CC1CCCC(NC(=O)COC(=O)/C=C/c2ccco2)C1C (stereo unspecified) | / | / | 1 | 0 | / | -3 | -16 | /
O=C(NCCN1CCOCC1)C(=O)NCC1OCCN1C(=O)c1ccc(Cl)cc1 (stereo unspecified) | 0 | -6 | -1 | 4 | i | -15 | / | 4
O=C(CCNC(=O)c1ccccc1)N=Nc1c(O)[nH]c2ccccc12 | -4 | -65 | / | / | i | / | -2 | -12
COc1ccccc1CCC(=O)Nc1nccs1 | -2 | -9 | -3 | 2 | i | -1 | 1 | -2
COc1cccc(CNC(=O)C2CCN(c3nn4c(=O)cc(C)nc4s3)CC2)c1 | -8 | 3 | 0 | 2 | i | -12 | -6 | -4
CCCCSc1nc(C)cc(C)c1S(=O)(=O)c1ccccc1C | 11 | / | -1 | -3 | i | -11 | 12 | 4
CCn1cc(Br)c(C(=O)N(C)Cc2ccccc2)n1 | -4 | 2 | -2 | 2 | i | -21 | -4 | 6
COc1ccc(/C=N/NC(=O)c2ccc(Br)o2)cc1Cn1cc([N+](=O)[O-])cn1 | 8 | / | -1 | 2 | i | -15 | -7 | -1
O=C(Nc1ccc(S(=O)(=O)N2CCCCC2)cc1)c1ccco1 | -3 | 3 | -1 | -5 | i | 5 | -3 | 9
C#CCOCCOCCOCCNc1nc(N2CCN(C(=O)[C@H](CCC(=O)O)n3cc(C(N)Cc4ccc(O)cc4)nn3)CC2)nc(N2CCN(C(=O)[C@H](Cc3cc4ccccc4[nH]3)n3cc(C(N)CC(C)C)nn3)CC2)n1 (stereo partly specified) | -10 | / | / | / | i | / | -7 | 9
COc1ccc2c(C(=O)c3ccc(Cl)cc3)n(CCCC(N)=O)[n+]([O-])c2c1 | / | 7 | -2 | 0 | i | -7 | -11 | /
CCOC(=O)c1c(C(C#N)C#N)cc(C)nc1C | 1 | -21 | 0 | 1 | i | / | 11 | -4
Cc1ccc(S(=O)(=O)NCCCNS(=O)(=O)c2ccccc2[N+](=O)[O-])cc1 | 50 | -3 | 2 | -2 | i | -33 | / | -3 | eIF4H FP inh retest=20;PABP FP inh retest=3
CC(=O)c1cc2c(cc1NC(=O)CN1CCN(c3ccc(F)cc3)CC1)OCO2 | -5 | / | 0 | -3 | i | 4 | -5 | 10
COc1ccc(-c2[nH]ncc2CN2C[C@@H]3CCC[C@H]2C3)c(F)c1 | 4 | 22 | 4 | 3 | i | -8 | -21 | -6
Cc1cccc(OCc2nc(C#N)c(N3CCCC3)o2)c1 | -5 | -8 | 4 | 1 | i | / | 4 | -1
COc1c(C)cc(C(=O)C2CCCN(C(=O)/C=C/c3ccccn3)C2)cc1C (stereo unspecified) | 5 | 3 | -5 | 2 | i | -20 | 7 | -5
N#C/C(=C\c1cccc([N+](=O)[O-])c1)C(=O)Nc1cccnc1 | -7 | 9 | 2 | 3 | / | / | 0 | -4
CCOc1cc(CNc2ccc(N3CCCC3)cc2)cc(Cl)c1OC | 34 | -9 | -3 | 0 | i | -32 | -12 | 0
Cn1cc(CN2CCN(Cc3cccnc3)CC2)c(-c2ccc3c(c2)OCCO3)n1 | -4 | -17 | -2 | -1 | i | / | 14 | 11
CCOc1ccc(C(=O)Nc2ccncc2)cc1 | -8 | / | / | / | i | -14 | 33 | -1
COc1ccc2[nH]c(=O)c(CN(c3ccccc3)S(=O)(=O)c3ccccc3)cc2c1 | -11 | 13 | -9 | -9 | i | 5 | 1 | 0
Cc1ccc(-n2nnnc2SCc2nnc(-c3ccccc3Br)o2)c(C)c1 | 0 | / | -7 | -15 | i | -7 | 15 | -4

An excerpt from above in order of heavy-atom count, ascending.
SMILES | eIF4H FP inh | HIV Env fusion | MT1-MMP act inh | MT1-MMP act inh RFP | Rce1 inh | Yeast UUG start | CSC inhib | PABP FP inh | others
CCOc1ccc(C(=O)Nc2ccncc2)cc1 | -8 | / | / | / | i | -14 | 33 | -1
Cc1cccc(OCc2nc(C#N)c(N3CCCC3)o2)c1 | -5 | -8 | 4 | 1 | i | / | 4 | -1
COc1ccccc1NC(=S)N1CCN(Cc2ccccc2)CC1 | 6 | 1 | 2 | 3 | i | / | -12 | 7
COc1c(C)cc(C(=O)C2CCCN(C(=O)/C=C/c3ccccn3)C2)cc1C (stereo unspecified) | 5 | 3 | -5 | 2 | i | -20 | 7 | -5
COc1ccc2[nH]c(=O)c(CN(c3ccccc3)S(=O)(=O)c3ccccc3)cc2c1 | -11 | 13 | -9 | -9 | i | 5 | 1 | 0

Further structures follow:
SMILES | eIF4H FP inh | HIV Env fusion | MT1-MMP act inh | MT1-MMP act inh RFP | Rce1 inh | Yeast UUG start | CSC inhib | PABP FP inh | others
N#Cc1c(SCC(=O)Nc2nc3ccccc3s2)sc2c(O)cc(=O)[nH]c12 | / | / | -4 | 5 | / | -9 | -6 | /
O=C(CCc1cnccn1)NC1CCCc2c1cnn2-c1ccc(F)cc1F (stereo unspecified) | -2 | 17 | -9 | -2 | i | / | -3 | 0
COc1ccc(CCNC(=O)C(Sc2ccccn2)c2ccccc2)cc1OC (stereo unspecified) | -8 | -7 | 2 | -6 | i | / | / | 8
O=C(N=C1SC2CS(=O)(=O)CC2N1c1cccc(Cl)c1Cl)C1CC1 (stereo unspecified) | 1 | -3 | -2 | 2 | i | / | -22 | -6
Cc1ccccc1Nc1nc(NCc2ccco2)c2ccccc2n1 | 4 | 5 | -5 | -14 | i | -6 | 22 | -7
COc1cccc(Cn2nnc(C(=O)NCc3ccc4c(c3)OCO4)c2N)c1 | -4 | -1 | -3 | 1 | i | / | 0 | 8
COc1ccc(CCNC(=O)c2ccccc2OCc2ccccc2)cc1 | -2 | -18 | 0 | -10 | i | -16 | 45 | -3
Nc1nc(-c2ccco2)nn1S(=O)(=O)c1ccccc1 | -1 | 5 | 0 | 3 | i | / | 5 | -4
CN(c1ccccc1)S(=O)(=O)c1ccc(C(=O)N2CCN(c3ccccc3Cl)CC2)cc1 | / | 10 | -3 | -12 | / | -5 | 0 | /
CCC(C)NC(=O)CSc1ccc(S(=O)(=O)N2CCN(Cc3ccccc3)CC2)cn1 (stereo unspecified) | / | / | 2 | -7 | / | -8 | 11 | /
COc1ccc(-c2nsc3c(N4CCCCC4C)ncnc23)cc1 (stereo unspecified) | -7 | -2 | 4 | -5 | i | / | 46 | -19
C(=C\c1ccccc1)/CN1CCN(C(c2cccc3ccccc23)c2nnnn2C2CCCC2)CC1 (stereo unspecified) | / | -17 | -1 | -8 | / | -1 | / | /
CC(=O)NCCC(Cc1ccccc1)c1ccco1 (stereo unspecified) | -1 | / | -6 | 5 | i | -2 | -3 | -5
CCc1nnc(NC(=O)CSc2nnc(-c3ccco3)n2C)s1 | -6 | / | -1 | 3 | i | / | -5 | 4
NC(=O)C1CCN(C(=O)COc2ccc3ccc(=O)oc3c2)CC1 | -3 | / | 3 | 4 | i | -6 | 4 | -4
CSCCC(NC(=O)c1ccc(Cl)cc1Cl)C(=O)OC1CCCCC1=O (stereo unspecified) | / | / | 0 | 2 | i | / | -8 | /
CC1CCN(c2nc(-c3ccco3)c3c(c2C#N)CC(C)(C)OC3)CC1 | 10 | -10 | -6 | 2 | i | 1 | 15 | 4
COCCn1c(C)cc(/C=C2/SC(=O)N(CC(=O)N3CCCC3)C2=O)c1C | -2 | -35 | 2 | 4 | / | 6 | -7 | 2
O=[N+]([O-])c1ccc(N2CCCCC2)cn1 | -6 | -11 | -2 | -3 | i | -6 | 0 | -7
